Screening data from PubChem.
YjeE inh: YjeE (TsaE) inhibition, E. coli; P0AF67; purified YjeE, fluorescence polarisation of a bound ADP probe; Potency, µM; actives 0.05% (n = 71,000); AID 605; active = well fitted falling curve; inconclusive = weaker or top-dose-only fall, or a rising curve; inactive = flat or poorly fitted curve;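 further: top concentration of the series not given in the record; excess ADP was the control for the full effect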
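Purified YjeE (10 uM) with BODIPY Texas Red-labeled ADP probe (2 uM); compounds pin-transferred, 15 min at room temperature. Binding inhibition read as decreased fluorescence polarization; ADP titration as control.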
Bst PK mod: pyruvate kinase (B. stearothermophilus) modulation; actives 1.2% (n = 51,000); AID 361; Potency, µM; partly purified Bacillus stearothermophilus pyruvate kinase, luminescence ATP production; ribose 5-phosphate activator present at AC10; in the data active means potency below about 11 µM; inconclusive means mostly about 12 µM to 25 µM; inactive means weaker than that;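 the screen sought inhibitors and activators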;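 further: potency means the concentration at half of the fitted maximal effect; scaled between full activation by ribose 5 phosphate and full inhibition by luteolin; about four in five hits inhibit and the cells do not say which; series up to 57 µM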
An asterisk follows results filed as active; i = inactive; ? = inconclusive; · = no result given. An excerpt; the hit share may differ from the screen's.

YjeE inh,Bst PK mod,SMILES
i,·,Cc1cccc(N(C(=O)Nc2ccccc2)C2=NCC(C)S2)c1 (configuration not stated)
i,·,COc1cccc2cc(C(=O)N3CCN(c4ccc(C)cc4C)CC3)c(=O)oc12
i,·,Cn1c(=O)c2c(nc(SCCN3CCOCC3)n2Cc2cccc3ccccc23)n(C)c1=O
i,·,COc1ccc(OCCCC(=O)Nc2ccc3c(c2)OCO3)cc1
i,>57,CC(=O)Nc1ccc(C(=O)NC2CCCC2)cc1
·,>26,CCOc1cccc(NC(=O)C2CC(=O)NC(=Nc3ccccc3)S2)c1 (configuration not stated)
i,>57,c1coc(-c2nc3nc4ccccc4n3nc2-c2ccco2)c1
i,>57,Cn1c(-c2ccccc2)c(CCO)c2ccccc21
i,>57,COc1ccc(C(C(=O)OC(C)CN(C)C)c2ccccc2)cc1 (configuration not stated)
i,·,COCCNc1nc(-c2cccc(OC)c2)nc2ccccc12
i,>57,CN1CCN(/C(=N\S(=O)(=O)c2ccc(F)cc2)c2ccccc2)CC1
i,·,CNC(=O)[C@@H]1C[C@H]1[C@@H](NC(=O)CNC(=O)OCc1ccccc1)c1ccccc1
i,·,CN(Cc1cccc2ccccc12)Cc1cccc2ccccc12
i,·,O=C(C1CCCN(S(=O)(=O)c2cnc[nH]2)C1)N(CCc1ccccc1)Cc1ccccc1 (configuration not stated)
i,>57,COc1ccc(-c2c(C#N)c(N)nc3c2CCCC3)cc1OC
·,>26,Cc1cc(Cn2ccnc2)c(C)cc1Cn1ccnc1
i,·,O=C(CCCC(=O)OCC(F)(F)C(F)F)Nc1nccs1
i,·,O=C1C2CC=C(Cl)CC2C(=O)N1CN(Cc1ccco1)CN1C(=O)C2CC=C(Cl)CC2C1=O (configuration not stated)
i,>57,CC(C)CC(NC(=O)OC(C)(C)C)C(=O)NC(C(=O)N1CCCC1C(N)=O)C(C)C (configuration not stated)
i,>57,Cc1c(NC(=O)C2CCCNC2=O)c(=O)n(-c2ccccc2)n1C (configuration not stated)
i,·,Cc1onc(-c2c(F)cccc2Cl)c1C(=O)N[C@@H]1C(=O)N2[C@H]1SC(C)(C)[C@H]2C(=O)O
i,>57,O=C(CN1CCC(O)(c2ccc(F)cc2)CC1)NCc1ccc(F)cc1
i,>57,Cc1cc2c(cc1C)N(CC(=O)N1CCCC1)C(=O)CC(c1ccccc1)=N2
i,>57,COc1ccc(S(=O)(=O)N(C)c2ccc(C(=O)N3CCOCC3)cc2)cc1
i,·,CCN1CCN(C(=O)c2cc3c(=O)oc4ccc(C)cc4c3s2)CC1
i,>57,C=CCN(CC(=O)NCc1ccc(OC)cc1)C(=O)c1csnn1
i,i,Clc1cc(Br)ccc1OCCn1ccnc1
i,?,Oc1[nH]c2ccccc2c1/C=N/c1nccs1
i,·,N#Cc1ccccc1
i,·,CSc1cccc(NC(=O)CN(C)S(=O)(=O)c2ccc(C)cc2)c1
i,·,NCCC[C@@H](CC(=O)N[C@@H]1CCNC[C@H]1C(=O)N[C@H](CC(=O)N[C@@H](CCC(=O)O)CC(=O)O)Cc1ccccc1)NC(=O)C[C@H](CO)NC(=O)[C@@H]1CCCC[C@H]1N
i,>57,Cn1c(SCc2ccccn2)nnc1-c1ccncc1
i,>57,Cn1c(=O)n(CCc2ccccc2)c(=O)c2c1nc1n2CCCN1c1ccc(F)cc1
i,>57,Cc1onc(-c2ccccc2Cl)c1C(=O)OCC(=O)N1CCCc2ccccc21
i,>57,COc1ccc(C(=O)NCc2nnc(SCC(=O)Nc3cccc(C(F)(F)F)c3)o2)cc1OC
i,>57,CC1CCN(CCNC(=O)C2CCCN(S(=O)(=O)c3cccc4nonc34)C2)CC1 (configuration not stated)
i,>57,CC(C)N(O)C(=O)NC(C)(C)C
i,>57,CN1CCN(C(c2ccc(F)cc2)c2nnnn2Cc2cccs2)CC1 (configuration not stated)
i,>57,COc1ccc(NC(=O)c2ccco2)c(OC)c1
i,>57,CCOc1cccc(-c2nnc3sc(COc4ccc(Cl)cc4)nn23)c1
i,·,Nc1nc2[nH]c(=O)cnc2c(=O)[nH]1
i,·,Cc1nc2ccc(S(=O)(=O)NC(C(=O)N3CCCC3)C(C)C)cc2s1 (configuration not stated)
i,·,COc1cccc(Cn2c(=O)c(-c3cc(F)cc(F)c3)nc3cnc(N4CCOCC4)nc32)c1
i,·,COc1ccc(NC(=O)CC2Oc3ccccc3NC2=O)cc1 (configuration not stated)
i,>57,Cc1ccc2nc(NC(=O)c3ccc(Cn4cc(Cl)cn4)o3)sc2c1
i,>57,Cc1ccc(F)cc1NC(=O)Cc1nn(C)c(=O)c2ccccc12
i,>57,CN(C)S(=O)(=O)c1ccc(Oc2ccccc2)cc1
i,>57,CC1(C)Cc2nc3oc4c(=S)nc[nH]c4c3cc2CO1
i,>57,Cc1cccc(NC(=O)Nc2cccc(C)n2)n1
i,·,Cc1nc2cc(-c3cccc(F)c3)nn2c(N2CCOCC2)c1C
i,>57,Clc1ccc(CN2C3=NCCN3c3ccccc32)cc1
i,·,Cc1cc(O)ccc1Nc1nc2ccccc2nc1Nc1ccc(O)cc1C
i,>57,CCn1c(Cc2ccccc2)nnc1SCC(=O)OC(C)C
·,i,O=C(/C=C/c1ccccc1)c1ccccc1
i,>57,Cc1nnc2n1NC(c1ccc(Cl)cc1)C(C(=O)N1CCC(C)CC1)S2 (configuration not stated)
i,>57,CC(=O)OCC(OC(C)=O)C(OC(C)=O)C(OC(C)=O)C(=O)Nc1ccc(C)cc1C (configuration not stated)
i,·,O=C(NCc1nc2ccccc2[nH]1)c1cccs1
i,>57,O=C1c2cccnc2C(=O)N1Cc1ccc(F)cc1
i,·,COc1cc(OC)c(NC(=O)c2ccc(Br)o2)cc1Cl
i,>57,CCc1cc2cccc(C)c2nc1SCC(=O)N1CCN(C(=O)c2ccco2)CC1

Other compounds follow.
YjeE inh,Bst PK mod,SMILES
i,>57,Cn1nccc1/C=C(/C#N)S(=O)(=O)c1ccccc1
i,>57,O=S(=O)(N1CCCCC1)n1nnc2ccccc21
i,>57,CN(CC(=O)NCCCN1CCOCC1)S(=O)(=O)c1ccc(Br)cc1
i,>57,CCCCNC(=O)CSc1nnc(-c2ccco2)n1C
i,>57,C=CCn1c(N2CCCCCC2)nc2c1c(=O)[nH]c(=O)n2C
i,i,OCCN1CCN(CCCN2c3ccccc3Sc3ccc(C(F)(F)F)cc32)CC1
i,>57,CCc1nc(SCC(=O)Nc2nccs2)c2oc3ccccc3c2n1
i,>57,O=C(NCc1ccc(F)cc1)c1cc(-c2ccco2)on1
i,>57,Cc1nn(Cc2ccccc2Cl)c(C)c1NC(=O)C1C2CCC(O2)C1C(=O)O (configuration not stated)
i,>57,Cc1cc2oc(C(=O)NC3CCS(=O)(=O)C3)c(C)c2cc1C (configuration not stated)
i,·,CSc1ccc(NC(=O)Nc2cc(C)ccn2)cc1
i,·,CCCCOc1cc(C[C@@H]2CNC(=O)N2)ccc1OC
i,>57,COc1cc(C)c(S(=O)(=O)N2CCOCC2)cc1C(C)C
i,>57,O=C(O)Cn1c(-c2cscn2)nc2ccccc21
i,>57,Cc1ccc(Cn2c(CN3CCOCC3)nc3c2c(=O)n(C)c(=O)n3C)cc1
i,>57,O=C1CCC/C1=c1\s/c(=C\c2cccnc2)c(=O)n1-c1ccccc1
i,>57,CC1(C)CC(=O)C2=C(C1)NC(Nc1nc3ccccc3o1)=NC21CCCCC1
i,·,COCCCNS(=O)(=O)c1ccccc1
i,>57,COc1ccc(-c2nnc(SC(C)C(=O)Nc3cccc(Cl)c3)o2)cc1 (configuration not stated)
i,>57,CC(=O)c1c(C)[nH]c(C(=O)OC2CCCCC2=O)c1C (configuration not stated)
i,>57,CC(NC(=O)c1nn(C)c(=O)c2ccccc12)c1ccccc1 (configuration not stated)
i,>57,CCCCCCn1c(=O)c(-c2nc3ccccc3c(=O)[nH]2)c(O)c2ccccc21
i,>57,Cc1ccc(C(C(=O)NCc2ccco2)N(C(=O)Cn2nnc3ccccc32)c2ccccc2)o1 (configuration not stated)
i,>11,CCOC(=O)CSc1nc2ccsc2c(=O)n1C1CCN(C(=O)OCC)CC1
i,>57,CN(Cc1cccc(F)c1)C(=O)c1ccc(S(=O)(=O)C(F)F)cc1
·,>26,Cc1ccc(S(=O)(=O)/C(C#N)=C/c2c(N3CCN(C)CC3)nc3c(C)cccn3c2=O)cc1
i,>57,Nc1cc(=O)[nH]c(SCc2nnc(-c3ccccc3)o2)n1
i,·,CCCCCn1c(=N)n(CC(O)COc2ccccc2OC)c2ccccc21 (configuration not stated)
i,·,O=C(Nc1ccccc1)OCCOc1ccccc1
i,>57,O=C(CN(CC1CCCO1)C(=O)CCC(=O)Nc1ccccn1)NCC1CCCO1 (configuration not stated)
i,·,CC1CCCN(C(C(=O)Nc2ccc3c(c2)OCO3)c2ccccc2)C1 (configuration not stated)
i,>57,COc1cc2ccccc2cc1C(=O)Nc1ccccc1N1CCN(S(C)(=O)=O)CC1
i,>57,Cc1ccc(S(=O)(=O)N2CCN(C(=O)CCC(=O)OCC(=O)Nc3cccc(C#N)c3)CC2)cc1
i,>57,CC1Cc2ccccc2N1C(=O)CN1CCc2ccccc2C1 (configuration not stated)
i,·,CCCCN(CC)CCCNC(=O)c1cc2c(=O)n(C)c3ccccc3c2n1C
i,>57,O=C1CCCC2=C1C1(CCCCC1)N=C(Nc1nc3ccccc3s1)N2
i,>57,Cc1ccccc1-n1nc(C)c2cc(C(=O)N3CCOCC3)sc21
i,·,COc1ccccc1CNc1ncnc2ccc(-c3ccccc3CN(C)C)cc12
i,·,CCN(CC)c1ccc2c(C)cc(=O)oc2c1
i,·,CCOCCOC(=O)c1[nH]c2c(c1C)C(=O)CC(c1ccc(N(C)C)cc1)C2 (configuration not stated)
i,·,COc1ccc(OCC(O)CN2CCCCC2)cc1 (configuration not stated)
i,·,Cc1nnc2ccc(N3CCC(C(N)=O)(N4CCCCC4)CC3)nn12
i,>57,O=C(NCC(=O)N(Cc1ccco1)C(C(=O)NC1CCCCC1)c1cccnc1)c1ccco1 (configuration not stated)
i,>57,COc1cc(C2c3sc(=O)[nH]c3SC3C4CCC(C4)C23)ccc1O (configuration not stated)
i,·,O=C1c2ccccc2C(=O)N1OCc1ccccc1
i,·,CCOC(=O)N1CCN(C(=O)Cn2nc(C)c3sc4ccccc4c3c2=O)CC1
i,>57,Nc1nnc(SCC(=O)Nc2ccc(F)c(Cl)c2)n1-c1ccccc1
i,·,O=C(NC1CCCCC1)N1CCN(C2CCCCC2)CC1
i,>57,CN(c1ccccc1C(=O)Nc1ccc2c(c1)OCO2)S(C)(=O)=O
i,·,CC(C)(C)OC=O
i,>57,Nc1nc2n(n1)C(c1ccco1)CC(c1ccc(Cl)cc1)N2 (configuration not stated)
i,>57,CC1CN(C(=O)c2ccccc2C(=O)c2ncc[nH]2)CC(C)O1 (configuration not stated)
i,·,COC(=O)[C@H](C)NC(=O)NC1CCCc2ccccc21 (some centres not stated)
i,>57,c1cncc(-c2nc(N3CCCCCC3)c3ccccc3n2)c1
·,>26,c1coc(-c2nnc3sc(C4CCCCC4)nn23)c1
i,·,O=C(CSc1nc2ccccc2c2ccccc12)c1ccccc1
i,>57,O=C(CCC(=O)N1CCN(C2CCCC2)CC1)Nc1nnc(C(F)(F)F)s1
i,·,C=C(C)C(=O)OCCCCCCCCCC
i,i,CCOc1ccc(-c2nn3c(-c4ccc(F)cc4)nnc3s2)cc1
i,>57,CCCCn1c2c(c(=N)c3c1CCC3)CCC2

(next part)
YjeE inh,Bst PK mod,SMILES
·,>11,CC(=O)[C@@]1(O)CC[C@H]2[C@@H]3CCC4=CC(=O)CC[C@]4(C)[C@H]3[C@@H](O)C[C@@]21C
i,>57,COc1ccc(CCC(=O)N2c3ccccc3CC2C)cc1 (configuration not stated)
i,>57,COc1ccc(N(CC(=O)Nc2ccc(C)cn2)S(=O)(=O)c2c(C)noc2C)cc1
i,·,COc1ccc(C(C)=O)cc1CSc1nnc(C)s1
i,>57,COc1cc(S(=O)(=O)N2CCC(O)(c3cccc(C(F)(F)F)c3)CC2)ccc1-n1cnnn1
i,>57,CCC(=O)NCCCCNC(=O)CC

Sorted by length of the SMILES (highest first): part of the list above
YjeE inh,Bst PK mod,SMILES
i,>57,COc1cc(S(=O)(=O)N2CCC(O)(c3cccc(C(F)(F)F)c3)CC2)ccc1-n1cnnn1
i,>57,COc1ccc(N(CC(=O)Nc2ccc(C)cn2)S(=O)(=O)c2c(C)noc2C)cc1
i,>57,O=C(CCC(=O)N1CCN(C2CCCC2)CC1)Nc1nnc(C(F)(F)F)s1
i,>57,CN(c1ccccc1C(=O)Nc1ccc2c(c1)OCO2)S(C)(=O)=O
i,>57,CC1CN(C(=O)c2ccccc2C(=O)c2ncc[nH]2)CC(C)O1 (configuration not stated)
i,i,CCOc1ccc(-c2nn3c(-c4ccc(F)cc4)nnc3s2)cc1
i,>57,Nc1nc2n(n1)C(c1ccco1)CC(c1ccc(Cl)cc1)N2 (configuration not stated)
i,>57,c1cncc(-c2nc(N3CCCCCC3)c3ccccc3n2)c1
i,·,O=C(CSc1nc2ccccc2c2ccccc12)c1ccccc1
i,>57,COc1ccc(CCC(=O)N2c3ccccc3CC2C)cc1 (configuration not stated)
·,>26,c1coc(-c2nnc3sc(C4CCCCC4)nn23)c1
i,·,COc1ccc(C(C)=O)cc1CSc1nnc(C)s1
i,>57,CCCCn1c2c(c(=N)c3c1CCC3)CCC2
i,·,C=C(C)C(=O)OCCCCCCCCCC
i,>57,CCC(=O)NCCCCNC(=O)CC
i,·,CC(C)(C)OC=O
